From PubChem BioAssay
Six1-Eya2 inh = blocks human Six1 binding to Eya2. Q15475+O00167. AlphaScreen GST-Six1/His-Eya2 binding, biochemical; stronger effect = lower value; control for the full effect not named in the record. activity change, % (no concentration beside the values). 360,000 compounds, 0.56% hits; in the data active = activity change below about -65%; inconclusive = about -30% to -65%; inactive = above about -30%; note: % is set by controls: 0 for no effect and ±100 for the full control effect
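Homogeneous AlphaScreen proximity assay pairing GST-Six1 with His-tagged Eya2 (added as 5X mix: 250 nM and 500 nM) in 50 mM Tris pH 8.0, 300 mM NaCl, 1 mM TCEP. Glutathione donor and nickel acceptor beads; 1 h, 37 °C, dark.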
TRPML1 ag = human mucolipin-1 channel agonism; TRPML1-expressing cells, Ca2+ dye fluorescence, FDSS; host cell line not named in the record; reference of the full effect not given here; activation, % (concentration not given with the values); 410,000 compounds, 0.12% hits; Q9GZU1; in the data active = activation above about 50%; inconclusive = about 30% to 50%; inactive = below about 30%; note: 0% is about no effect; the text of the record puts the active cut at 80%
Target sequence (Q9GZU1 whole entry, looked up): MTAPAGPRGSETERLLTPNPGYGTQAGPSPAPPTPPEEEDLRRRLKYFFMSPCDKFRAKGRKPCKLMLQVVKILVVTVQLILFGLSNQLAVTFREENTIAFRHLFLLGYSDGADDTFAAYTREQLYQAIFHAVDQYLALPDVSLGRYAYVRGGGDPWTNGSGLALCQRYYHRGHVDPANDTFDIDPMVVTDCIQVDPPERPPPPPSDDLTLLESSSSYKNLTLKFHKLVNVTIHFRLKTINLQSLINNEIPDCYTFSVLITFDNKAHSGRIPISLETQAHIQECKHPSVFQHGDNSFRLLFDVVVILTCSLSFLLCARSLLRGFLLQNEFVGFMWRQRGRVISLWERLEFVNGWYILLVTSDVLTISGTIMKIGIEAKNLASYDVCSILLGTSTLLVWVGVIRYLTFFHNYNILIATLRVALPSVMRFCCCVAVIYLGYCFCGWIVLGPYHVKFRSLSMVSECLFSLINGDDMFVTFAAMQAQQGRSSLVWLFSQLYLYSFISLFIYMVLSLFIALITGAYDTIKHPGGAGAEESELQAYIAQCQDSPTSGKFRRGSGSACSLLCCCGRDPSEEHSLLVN
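In this qHTS format, compounds were pin-transferred onto Ca8-dye-loaded TRPML1-DL cells induced with Tet overnight, and intracellular Ca2+ fluorescence was recorded kinetically for 110 s after a 10 s baseline. A subsequent 4uM final 54-4 (EC80) addition followed by a second 110 s read served as the antagonist phase.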
D2 potentiator = positive allosteric modulators of human D2 dopamine receptor | P14416 | DiscoveRx D2 beta-arrestin cells, luminescence, 90 min; 100% = 57 uM dopamine signal | potentiation, % (no concentration beside the values) | 360,000 compounds, 0.23% hits | AID 624464; active = potentiation of 50% or more; inconclusive = 30% to 50%; inactive = 30% or less;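 note: compound concentration not given in the record; tested on top of an EC20 dose of dopamine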
Target sequence (P14416 whole entry, looked up): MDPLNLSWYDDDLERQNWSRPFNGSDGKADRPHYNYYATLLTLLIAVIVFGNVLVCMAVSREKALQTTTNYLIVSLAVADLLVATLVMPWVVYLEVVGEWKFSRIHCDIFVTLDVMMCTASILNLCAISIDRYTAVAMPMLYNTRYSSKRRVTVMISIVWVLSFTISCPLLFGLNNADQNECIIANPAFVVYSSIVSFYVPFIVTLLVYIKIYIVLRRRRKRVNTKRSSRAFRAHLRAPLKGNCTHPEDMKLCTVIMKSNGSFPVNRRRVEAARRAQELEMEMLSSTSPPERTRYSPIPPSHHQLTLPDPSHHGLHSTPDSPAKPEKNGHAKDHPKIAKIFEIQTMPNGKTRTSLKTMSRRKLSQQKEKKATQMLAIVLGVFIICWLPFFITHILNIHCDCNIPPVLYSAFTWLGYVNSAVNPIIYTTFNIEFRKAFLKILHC
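PathHunter beta-arrestin assay in DiscoveRx D2 cells. Compounds were added with an EC20 of dopamine (50 nM final) for 90 min at 37 deg C. Luminescence was read 1 h after detection reagent, with 57 uM dopamine as the EC100 control.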
D2 agonist = activates the human D2 dopamine receptor; P14416; DiscoveRx PathHunter D2 beta-arrestin, luminescence, 90 min; 100% = 57 uM dopamine signal; activation, % (concentration not given with the values); 360,000 compounds, 0.084% hits; in the data active = activation above about 40%; inconclusive = about 15% to 40%; inactive = below about 15%; note: the text of the record calls up to 30% inactive
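DiscoveRx PathHunter D2 beta-arrestin cells (2,100/well) attached overnight, then compound-stimulated 90 min at 37 C in HBSS/10 mM HEPES/0.1% Tween-20 buffer; beta-galactosidase complementation read by luminescence after 1 h at ambient temperature. Dopamine 57 uM final (EC100) as control.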
CtBP-E1A inh = blocks the CtBP interaction with E1A. AlphaScreen GST-E1A/His-CtBP binding, 1536-well; stronger effect = lower value; control for the full effect not named in the record. activity change, % (concentration not given with the values). 340,000 compounds, 0.49% hits. AID 651724; in the data active means activity change below about -65%; inconclusive means about -30% to -65%; inactive means above about -30%; note: % is set by controls: 0 for no effect and ±100 for the full control effect
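AlphaScreen with 125 nM GST-E1A and 125 nM His-CtBP (5X stocks) in Tris pH 8.0, 300 mM NaCl, BSA, Tween 20, TCEP. Compounds preincubated 2 h at 37 deg C, then glutathione donor/nickel acceptor beads added for 1 h at 37 deg C in dark.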
PINK1 modulator = modulators of PINK1 expression; PINK1 immunofluorescence, high-content cytometry, 24 h; Potency, µM (titrated, usually from 76.6 µM), inactives show at the top dose activation (PINK1 increase), usual class: activators; 410,000 compounds, 0.2% hits; AID 624263; active = well fitted activation curve with a large enough effect; inconclusive = small, poorly fitted or top-dose-only effect; inactive = flat fitted curve, though single readings scatter; cell line not stated here;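 note: potency is the fitted concentration of half-maximal effect; % of control where 0% means no effect; nearly all actives have a fitted effect of over 65% in size; a mitochondrial uncoupler was the plate control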
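Fluorescence from anti-PINK1 antibody, together with nuclear and cell stains, was scanned on a laser-scanning cytometer. Before staining, stable-line cells were incubated 24 hours with compounds at 5 concentrations; primary antibody 12 h at 10 degrees C.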
Starred values were filed as active, the others as inactive; ? = inconclusive; . = not tested or not shown; [ ] = remark or other dose.

Each structure is followed by: Six1-Eya2 inh | TRPML1 ag | D2 potentiator | D2 agonist | CtBP-E1A inh | PINK1 modulator
CC1CC(=O)N(C)c2ccc([N+](=O)[O-])cc2N1 (stereo unspecified)
    5 | 0.0 | -4 | -7.2 | -13 | -0.3%
Cc1nc2sccn2c(=O)c1S(=O)(=O)NCC1CCN(Cc2ccccc2Cl)CC1
    5 | -0.5 | -24 | 1.7 | -29 | 0.2%
COC(=O)c1cn(NC(=O)c2ccc(OC)c(OC)c2)c(=O)c2ccccc12
    12 | 0.7 | -1 | 0.5 | 3 | ?
N#Cc1nc(COc2ccc(F)cc2)oc1N1CCCC1
    -18 | -0.8 | 2 | -3.8 | -14 | 1.4%
Cc1cc(C)nc(Nc2nc(C)c3cc4c(cc3n2)OCO4)n1
    2 | -0.2 | -2 | 0.3 | -6 | 0.5%
CCOc1ccc(C(=O)Nc2cc(=O)n(C)c(=O)n2C)cc1
    6 | -0.1 | -5 | -1.8 | -1 | 0.2%
O=C(CCNC(=O)c1ccc([N+](=O)[O-])cc1)NC1CCCCCC1
    6 | 0.0 | -2 | -2.8 | 4 | 0.0%
CCOC(=O)N1CCN(C(=O)CNC(=O)c2ccc(Cl)cc2Cl)CC1
    3 | -1.0 | -1 | 3.6 | 5 | -0.6%
Cc1cccc(OCCCC(=O)Nc2nccs2)c1C
    10 | -0.1 | -7 | -4.1 | 5 | 2.2%
COC(=O)CCc1c(C)nn(-c2ccccc2)c1C
    0 | -1.0 | 11 | -2.9 | 4 | -0.6%

(list continues)
Each structure is followed by: Six1-Eya2 inh | TRPML1 ag | D2 potentiator | D2 agonist | CtBP-E1A inh | PINK1 modulator
COc1cc(C(=O)NCCc2c[nH]c3ccccc23)ccc1OCc1c(C)noc1C
    8 | 1.5 | 20 | 15 | 16 | -0.5%
Cc1cc(=O)n(Nc2ccccc2)c(O)c1C#N
    -2 | -0.8 | -6 | -1.9 | 5 | -0.6%
O=C(O)c1cc(NCc2ccccc2C(F)(F)F)ccc1N1CCOCC1
    15 | 0.3 | -14 | -3.2 | 0 | 1.2%
C=CSc1sc(Cl)c(N(CC)CC)c1[N+](=O)[O-]
    -25 | 0.3 | 0 | -0.1 | 5 | 12%
O=C(NCCc1ccccc1)/C(=C/c1ccco1)c1ccccc1
    1 | 1.6 | -31 | -3.0 | 3 | 2.1%
Cc1ccc(C)c(OCC(=O)NC2CCCCCC2)c1
    7 | 1.8 | -6 | 6.0 | 4 | 6.4%
CCOC(=O)c1nc(S(C)(=O)=O)ncc1Cl
    5 | 1.9 | -30 | -0.8 | 6 | -1.7%[38.3 µM]
O=C(CSc1nc2ccccc2o1)N1c2ccccc2Sc2ccccc21
    -14 | 4.6 | -13 | -2.8 | 3 | 7.3%
Cc1c(C(=O)O)cccc1N1C(=O)Nc2ccccc2N1O
    6 | 1.2 | -7 | 0.0 | 1 | 0.2%
Nc1nc(SCC(=O)N2CCc3ccccc32)[nH]c(=O)c1-c1ccccc1
    -1 | 3.2 | -10 | -0.8 | 13 | 2.0%[38.3 µM]

Part of the list above, limited to TRPML1 ag and CtBP-E1A inh.
mol | TRPML1 ag | CtBP-E1A inh
O=C(NCCc1ccccc1)/C(=C/c1ccco1)c1ccccc1 | 1.6 | 3
Cc1ccc(C)c(OCC(=O)NC2CCCCCC2)c1 | 1.8 | 4
CCOC(=O)c1nc(S(C)(=O)=O)ncc1Cl | 1.9 | 6

Next results.
Each structure is followed by: Six1-Eya2 inh | TRPML1 ag | D2 potentiator | D2 agonist | CtBP-E1A inh | PINK1 modulator
Cc1cccc(NC(=O)c2sc3ncn(CC(=O)N4CCN(c5ccccn5)CC4)c(=O)c3c2C)c1
    -12 | -1.5 | -2 | -0.7 | -12 | -0.5%
COc1ccc(N2CCN(CC(=O)N3c4ccccc4CC3C)CC2)cc1 (stereo unspecified)
    -4 | 1.3 | -20 | -1.0 | -5 | 2.6%
O=C(CN1CCCc2ccccc21)NC(=O)NC1CCCCC1
    -13 | 0.7 | -1 | -1.7 | -9 | 4.9%
CCOc1ccccc1NC(=O)C1CCN(S(=O)(=O)c2ccc(OC)c(OC)c2)CC1
    -3 | -0.3 | -3 | -2.7 | 9 | .
COc1ccc(C(C)=O)cc1COC(=O)c1cccnc1Cl
    0 | 0.5 | -2 | -3.2 | -7 | 0.1%
CCCCc1n[nH]c(=S)n1Cc1ccccc1
    4 | 2.6 | -5 | -4.6 | . | 0.9%
O=C(N/C(=C\c1ccccc1)C(=O)N1CCOCC1)c1ccccc1Cl
    7 | 0.8 | -2 | 3.4 | 9 | -0.3%
COc1ccc(Cl)cc1C(=O)NNC(=O)CSc1nnnn1C
    19 | -0.1 | -17 | -4.6 | 4 | 5.8%
COc1ccc(CN2CCC(Cc3ccccc3)CC2)cc1OC
    -5 | -0.5 | -28 | -5.9 | -1 | 0.9%
CC(C)[C@@H](C(=O)NCC1CCCO1)N1C(=O)N2CCc3c([nH]c4ccccc34)[C@@]2(C)C1=O (stereo partly specified)
    4 | . | -3 | 2.8 | -3 | -0.3%

Following part.
Each structure is followed by: Six1-Eya2 inh | TRPML1 ag | D2 potentiator | D2 agonist | CtBP-E1A inh | PINK1 modulator
Cc1cc(C(=O)CSc2n[nH]c(-c3ccccc3F)n2)c(C)n1Cc1cccs1
    -16 | 1.8 | -13 | 1.0 | -4 | -0.1%
CCCCn1c(SCC(=O)N2CCc3ccccc32)nnc1-c1ccncc1
    -10 | 3.0 | -11 | -2.5 | -14 | -1.1%
Cn1c(=O)c2c(nc(C3CC4C5CCC(C5)C4C3)n2C)n(C)c1=O (stereo unspecified)
    11 | 1.3 | -8 | -3.0 | -4 | 14%
CCc1ccc(NC(=S)N(Cc2cccc(Br)c2)CC2CCC(C(=O)O)CC2)cc1 (stereo unspecified)
    -7 | -0.2 | -5 | -3.7 | . | -1.4%
CCNC(=O)n1nccc1C(C)Oc1ccccc1 (stereo unspecified)
    8 | -1.3 | -2 | 2.0 | 7 | -2.7%
COc1ccc([C@H]2CC(=O)C=C(c3ccnc4ccc(Cl)cc34)C2)cc1
    -4 | 0.8 | -31 | 1.1 | -10 | 3.4%
Nc1ccc2c3c(cccc13)C(=O)N(c1ccccc1)C2=O
    6 | 94* | 5 | 2.9 | 4 | 14%
Cn1ccnc1SCC(=O)Nc1ccc2ccccc2c1
    -2 | -0.4 | -8 | 0.4 | 2 | 0.5%[38.3 µM]
Cc1ccccc1-c1nnc(NC(=O)CSc2nc3ccccc3s2)s1
    0 | 0.0 | -4 | -3.4 | 7 | 12%
CCOc1ccccc1CN1C(=O)c2ccccc2C1C(=O)NCC1CCCO1 (stereo unspecified)
    -6 | -1.0 | -1 | -2.3 | 1 | 0.5%

Going on with the list:
Each structure is followed by: Six1-Eya2 inh | TRPML1 ag | D2 potentiator | D2 agonist | CtBP-E1A inh | PINK1 modulator
Cc1ccc(C(C)C)c2c1C(c1ccc3c(c1)OCO3)CC(=O)O2 (stereo unspecified)
    -1 | 4.8 | 1 | -6.0 | 1 | 22%
O=C(CSc1nnc2ccc(-c3cccnc3)nn12)Nc1ccc(F)cc1F
    -8 | -0.1 | -13 | 0.8 | -8 | -0.2%
CC1CCCN(CCCNC(=O)c2nn(C)c3c2CSc2ccccc2-3)C1 (stereo unspecified)
    2 | -0.3 | -25 | -6.3 | 1 | -0.5%
Cc1ccc(N2CC(C(=O)NC3=NCCS3)CC2=O)cc1C (stereo unspecified)
    9 | -0.3 | -2 | -2.4 | -7 | -1.9%
COc1ccc(C(C)=O)cc1COc1ccc(F)cc1
    17 | 2.2 | -12 | -4.9 | . | 1.4%
COc1ccccc1CCc1nnc(N)s1
    0 | 0.0 | -1 | 4.7 | 5 | 3.0%
CCCNC(=O)N(C)C[C@@H]1Oc2ncc(-c3ccncc3)cc2C(=O)N([C@H](C)CO)C[C@@H]1C
    0 | . | . | 0.4 | -13 | 0.5%
CCCCCCOc1ccc(OCC(O)CN2C(=O)NC(C)(C)C2=O)cc1 (stereo unspecified)
    -1 | -0.1 | 2 | 1.7 | 1 | 17%[38.3 µM]
COc1ccc(CC(=O)OC(C)C(=O)NCc2ccc3c(c2)OCO3)cc1OC (stereo unspecified)
    6 | 2.3 | 0 | 0.8 | 2 | -3.0%
Cc1occc1-c1nnc(SCC(=O)NCc2cccs2)n1-c1ccc(F)cc1
    -3 | -0.4 | -4 | -4.9 | -1 | -0.6%

Additional results follow.
Each structure is followed by: Six1-Eya2 inh | TRPML1 ag | D2 potentiator | D2 agonist | CtBP-E1A inh | PINK1 modulator
CS(=O)(=O)N(CC(=O)Nc1ccccc1C(=O)N1CCCC1)c1ccccc1Br
    -5 | -0.3 | -1 | -6.2 | -1 | 0.4%
CCN(CC)S(=O)(=O)c1ccc(C(=O)NCCN(C)C)cc1
    10 | 0.0 | -5 | 6.3 | . | -1.0%
CC(C(=O)N1CCN(Cc2ccc3c(c2)OCO3)CC1)n1cc([N+](=O)[O-])cn1 (stereo unspecified)
    8 | -0.5 | -6 | -2.1 | 8 | -0.3%
Nc1nc(-c2ccc(Oc3ccccc3)cc2)cs1
    -15 | 1.2 | -34 | 2.9 | . | 5.9%
CCOC(=O)Cn1nc(/C=C/c2ccc(OC)cc2)ccc1=O
    11 | 0.2 | 6 | -2.0 | 8 | 4.6%
Fc1ccc(OCc2nnc(-c3ccccc3Br)o2)c(Cl)c1
    9 | 0.6 | 4 | 1.5 | 18 | 9.4%
O=C(Nc1ccc2c(c1)OCCO2)c1ccc(S(=O)(=O)N2CCCCC2)cc1
    -4 | 0.9 | -1 | 0.6 | -13 | -1.4%
CSc1ccc(Cl)c(C(=O)Nc2nccs2)c1
    24 | 1.1 | -11 | 0.2 | . | -0.3%
N#Cc1ccc(OCC(=O)OCC(=O)NC2CC2)cc1
    0 | -0.1 | -19 | -0.4 | 0 | 0.9%
Cc1ccc(CNC(=O)C(CC(C)C)OC(=O)c2ccco2)cc1 (stereo unspecified)
    4 | 3.8 | -4 | -1.6 | -3 | -0.6%
O=C(CNc1cccc(Br)c1)Nc1ccc(S(=O)(=O)N2CCCCC2)cc1
    -19 | -0.6 | -18 | -0.7 | -15 | 1.8%
O=C(c1cc(-c2ccc(Br)cc2)nc2ccccc12)N1CCC1
    2 | 0.1 | -16 | -2.7 | -8 | -0.9%
CSCC[C@H](NC(=O)C1CCN(S(=O)(=O)c2ccc(C)cc2)CC1)C(=O)NC1CCS(=O)(=O)C1 (stereo partly specified)
    7 | 0.4 | -6 | -2.6 | 0 | 3.5%

Among those listed so far, 3 have a cyano group:
Each structure is followed by: Six1-Eya2 inh | TRPML1 ag | D2 potentiator | D2 agonist | CtBP-E1A inh | PINK1 modulator
N#Cc1nc(COc2ccc(F)cc2)oc1N1CCCC1
    -18 | -0.8 | 2 | -3.8 | -14 | 1.4%
Cc1cc(=O)n(Nc2ccccc2)c(O)c1C#N
    -2 | -0.8 | -6 | -1.9 | 5 | -0.6%
N#Cc1ccc(OCC(=O)OCC(=O)NC2CC2)cc1
    0 | -0.1 | -19 | -0.4 | 0 | 0.9%
